Screening data: PubChem, several laboratories
BJeLR viability = BJeLR cell viability loss; BJeLR (HRASV12) viability, CellTiter-Glo ATP luminescence, 48 h; reference of the scale not given here; inhibition, % (no concentration beside the values); hit rate 0.17% among 300,000; AID 1554;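 active means replicate mean above 50%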;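 further: 50 nL library stock added to about 25 µL; numbers are from one replicate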
Bead autofluor = counter-screen for toxin protease inhibitors: compound fluorescence | compound autofluorescence counterscreen, microsphere flow cytometry; hits give high values | fluorescence intensity (concentration not given with the values) | hit rate 3.1% among 360,000 | AID 624483;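 active means at least 3 SD above the mean of all compounds, about 16000 in these data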;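 further: 100 nL of 1 mM stock went into each well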
Sa ugtP lethal = kills S. aureus RN4220 lacking UgtP. hit rate 0.54% among 330,000. AID 1259309. growth inhibition, % (concentration not given with the values). S. aureus RN4220 ugtP deletion, OD600 growth, 16 h; some inactives read as strong as hits;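 active means z-score under -3 and OD600 up to 0.15 on both plates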;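 further: plate controls were untreated wells for no effect and antibiotic for full effect; wells of about 80 µL received 100 nL stock; the first replicate is given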
PrP UTR inh = suppresses PrP 5' UTR mRNA reporter expression | inhibition, % (no concentration beside the values) | cell-based PrP 5' UTR mRNA reporter, plate reader | hit rate 0.35% among 340,000;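 active means every replicate at 50% or more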;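 further: 0 = median of the neutral control wells; tested in H4 reporter cells; numbers are from one replicate; inactives centre near -14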
RN4220 kill = S. aureus RN4220 growth inhibition. OD600, 16 h. inhibition, % (no concentration beside the values). hit rate 0.33% among 330,000;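 active means z-score of -3 or lower and OD600 up to 0.18 on both plates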;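 further: plate controls were untreated cells for no effect and reference antibiotic for full effect; stock transfer was 100 nL into about 80 µL; one replicate is shown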
Mtb hypoxia inh = Mtb hypoxia fluorescent reporter inhibition; AID 1159583; fluorescence inhibition, % (no concentration beside the values); hit rate 0.1% among 300,000; M. tuberculosis hypoxia-regulated fluorescent reporter, fluorescence;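 active means 35 to 45% if threefold the growth effect, above 45% if 1.5-fold the growth effect; inactive means the rest, general growth blockers included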;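 further: wells of about 50 µL received 100 nL stock; 0% = vehicle wells and 100% = reference inhibitor wells; whole bacteria with a GFP reporter of the hypoxia response; strong numbers were not always called active; many hits fall short of the cut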
Mtb hypoxia inh growth = second read-out of Mtb hypoxia inh, no call of its own (marks repeat the call); growth inhibition, %; measured here: M. tuberculosis growth (absorbance);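 0% = vehicle and 100% = reference antibiotic; read after six days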
An asterisk follows results filed as active; x = no result given.

Preview, two compounds:
SMILES | BJeLR viability | Bead autofluor | Sa ugtP lethal | PrP UTR inh | RN4220 kill | Mtb hypoxia inh | Mtb hypoxia inh growth
O=C(COC(=O)/C=C/c1ccccc1)Nc1ccccc1Br | -5 | 7619 | 2 | -14 | 8.7 | -1 | 0
COC(=O)c1ccc(Sc2ccc(Cl)cc2)c(N)c1 | -7 | 7763 | 22 | -6 | 3.4 | 4 | 9

All compounds of this part, from the first entry:
SMILES | BJeLR viability | Bead autofluor | Sa ugtP lethal | PrP UTR inh | RN4220 kill | Mtb hypoxia inh | Mtb hypoxia inh growth
O=C(COC(=O)/C=C/c1ccccc1)Nc1ccccc1Br | -5 | 7619 | 2 | -14 | 8.7 | -1 | 0
COC(=O)c1ccc(Sc2ccc(Cl)cc2)c(N)c1 | -7 | 7763 | 22 | -6 | 3.4 | 4 | 9
CCOc1ccc(NC(=O)CSc2nc3[nH]ncc3c(=O)n2-c2ccccc2OC)cc1 | -2 | 7316 | 2 | 9 | 2.0 | -1 | 6
CC1CN(C(=O)C2CCCC2)C(C)CN1C(=O)C1CCCC1 (configuration not stated) | -7 | 2358 | 1 | -5 | 3.2 | 3 | 3
CC(=O)N1CCN(CC(=O)Nc2sccc2C#N)CC1 | 4 | 3299 | 14 | -21 | 2.5 | -3 | 3
CCC12CN3CC(CC)(CN(C1)C31C(=O)N(C)c3ccc(C)cc31)C2=O (configuration not stated) | -4 | 4116 | 7 | 37 | 2.5 | 1 | 3
COc1ccc(C(=O)c2ccc(OC)c(OC)c2)cc1OC | -3 | 3620 | 2 | -6 | 7.6 | 10 | 19
COc1cc(/C=C2\SC(=S)N(N3CCOCC3)C2=O)cc(OC)c1OC | -5 | 2104 | 3 | -1 | 2.8 | 7 | 1
COc1ccc(/C=N/n2cnn(Cc3ccccc3Cl)c2=S)cc1 | -9 | 2876 | x | -30 | x | x | x
CC(C)NC(=O)NC(=O)COC(=O)C1(C)CC1(Cl)Cl (configuration not stated) | 15 | 4168 | 4 | -6 | 4.0 | 8 | 0
Cc1ccc(C(=O)CSc2nnc(C)s2)cc1 | -2 | 2223 | 10 | -76 | 6.1 | 12 | 7
CCc1c(C)nc2ncnn2c1N1CCC(C(=O)NCc2cccs2)CC1 | -3 | 4288 | 15 | -13 | 3.3 | 17 | 9
COc1cccc(OCc2nnc(SCC(=O)NCc3ccco3)n2CCc2ccccc2)c1 | 0 | 20143* | -5 | -3 | 6.9 | 10 | 6
CC(C)(C)NC(=O)CSc1nc(-c2ccccc2)c(-c2ccccc2)[nH]1 | 5 | 23364* | 11 | -19 | -0.4 | -10 | 3
Cn1c(SCC(=O)c2ccccc2)nnc1-c1ccccn1 | 0 | 3879 | 8 | -61 | 3.6 | -3 | 6
COC(=O)CSC1=C(C#N)C(c2ccccc2OC)C(C(=O)OC)C(=O)N1 (configuration not stated) | -1 | 2373 | -2 | -21 | -0.9 | -6 | 5
Cc1c(C(=O)N2CCCCC2)sc(NC(=O)C(C)C)c1C#N | -4 | 11961 | -6 | -30 | -2.6 | -8 | 4
CNC(=O)C1C2C=CC3(O2)C1C(=O)N(C1CC1)C3C(=O)NCc1ccc(OC)cc1 (configuration not stated) | -1 | 3529 | 5 | 4 | 4.9 | 10 | 6
O=C(NCc1ccccc1)Nc1cccn(Cc2ccc(F)cc2)c1=O | 18 | 2149 | 2 | -20 | -1.5 | -1 | 0
COc1ccc(C(CC(=O)NCc2ccccc2)Sc2n[nH]c(-c3ccccc3)n2)cc1 (configuration not stated) | 3 | 2422 | 10 | -16 | 0.5 | -3 | 6
CCOC(=O)C1=NN(c2ccc(F)cc2)C2=NC(C)=C(C(=O)OC)C(c3cccs3)N12 (configuration not stated) | -12 | 5733 | -7 | -19 | -3.2 | -2 | -3
COc1ccc(Cl)cc1S(=O)(=O)N1CCCC(C(=O)NCCc2ccccc2)C1 (configuration not stated) | 3 | 4303 | 7 | 8 | 2.3 | 0 | -6
COc1ccc(CCNC(=O)C2CCCN(S(C)(=O)=O)C2)cc1OC (configuration not stated) | 1 | 9282 | 2 | -17 | 1.7 | 8 | 7
COc1ccc(S(=O)(=O)N2CCC(C(=O)N3CCCCC3)CC2)cc1 | -3 | 4698 | 8 | 9 | 6.3 | 10 | 7
COc1ccc(C=NCC2COc3ccccc3O2)cc1OC (configuration not stated) | 3 | 10823 | 6 | 3 | 5.0 | 5 | 7

Complete entries, quoted from the list. Screens in order: BJeLR viability, Bead autofluor, Sa ugtP lethal, PrP UTR inh, RN4220 kill, Mtb hypoxia inh, Mtb hypoxia inh growth
CCC12CN3CC(CC)(CN(C1)C31C(=O)N(C)c3ccc(C)cc31)C2=O (configuration not stated) reads -4, 4116, 7, 37, 2.5, 1, 3
COc1cc(/C=C2\SC(=S)N(N3CCOCC3)C2=O)cc(OC)c1OC reads -5, 2104, 3, -1, 2.8, 7, 1

The list continues:
SMILES | BJeLR viability | Bead autofluor | Sa ugtP lethal | PrP UTR inh | RN4220 kill | Mtb hypoxia inh | Mtb hypoxia inh growth
CCc1ccc(NC(=O)C2CCN(S(=O)(=O)c3c(C)noc3/C=C/N(C)C)CC2)cc1 | 6 | 4916 | 2 | -12 | 6.2 | 7 | 1
Cn1cc(CN2CCC(C(O)c3cccs3)CC2)c(-c2ccccc2F)n1 (configuration not stated) | -3 | 3811 | 2 | -17 | 4.7 | 14 | 17
c1ccc(C[n+]2c(-c3ccccc3)csc2Nc2ccccc2)cc1 | 11 | 8920 | 85* | -25 | -9.7 | 9 | 9
CC(=O)O/N=C(/C)c1ncc(C(F)(F)F)cc1N1CCOCC1 | 6 | 2387 | x | -4 | x | x | x
CC[C@]1(C(=O)OC)[C@H]2C(=O)N(Cc3ccccc3)C(=O)[C@H]2[C@H]2CN=C(SCc3ccccc3)N21 | x | 2783 | 2 | -17 | 6.3 | 1 | 2
CN(Cc1ccccc1F)C(=O)C(Cc1ccccc1)NC(=O)c1ccccc1 (configuration not stated) | -16 | x | -3 | -20 | -0.2 | 8 | 7
O=C(CN1CCC(Cc2ccccc2)CC1)NC(=O)NCc1ccco1 | 6 | 3679 | 9 | -3 | 10 | x | x
CCC(O)C1CCN(C(=O)c2ccc(OC3CCN(Cc4ccccn4)CC3)cc2)CC1 (configuration not stated) | 3 | 5543 | 5 | -6 | 0.9 | 4 | 19
COC(=O)c1ccc(C)c(NC(=O)C2CC(=O)N(C3CCCC(C)C3C)C2)c1 (configuration not stated) | x | 3851 | -1 | -6 | -0.9 | 3 | -2
CCOc1cc(C(=O)N=c2sccn2C)cc(Br)c1OC | 4 | 6297 | 2 | -8 | 3.3 | -10 | 5
CCCCN(CCCC)C(=S)N/N=C/c1c(C)[nH]n(-c2ccccc2)c1=O | 18 | 3185 | x | 27 | x | x | x
COCCCn1c(SCC(=O)OC2CCCCC2)nnc1-c1cccs1 | -6 | 15299 | 3 | 13 | 0.8 | 2 | -3
Cc1cc(=O)n2c(-c3ccc(Cl)cc3)csc2n1 | 0 | 6362 | 14 | -18 | 4.5 | 9 | 0
O=C(NCc1cccc(Cl)c1)C1CCCO1 (configuration not stated) | -1 | 4582 | 9 | -5 | 1.9 | 1 | 10
COC(CNC(=O)c1coc2nc3ccccc3nc12)OC | 3 | 5437 | 5 | -30 | 5.8 | 1 | 2
O=C(c1cc2ccccc2o1)N1CCN(CCOc2ccccc2)CC1 | x | 6074 | 3 | -10 | -3.0 | -7 | -1
Fc1ccc(C=NNc2nnnn2-c2ccccc2)cc1 | x | x | -1 | x | 4.5 | 4 | 8
Cn1cc(SCC(=O)Nc2ccc3c(c2)OCO3)c2ccccc21 | -1 | 5764 | 17 | -18 | 18 | 2 | 6
O=C(NCCCn1cccn1)C1CCC(=O)N(Cc2ccccc2F)C1 (configuration not stated) | -6 | 5034 | 2 | -16 | 1.5 | 6 | 5
COc1ccc(OC)c(NC(=O)C2CCCN(S(C)(=O)=O)C2)c1 (configuration not stated) | 4 | 3938 | 10 | -13 | -2.9 | 6 | -4
CCCC1=Nc2cc(C(=O)NCCCOC(C)C)ccc2Sc2ccccc21 | 34 | 4205 | -14 | -9 | 1.8 | 14 | 19
Fc1ccc(CSc2nnc(CN3CCOCC3)n2-c2ccccc2)c(Cl)c1 | 3 | 3017 | -11 | -8 | -4.2 | 7 | 11
Cc1cccc(C)c1N1C(=O)CC(N(O)c2ccccc2)C1=O (configuration not stated) | -10 | 3253 | 1 | -7 | -0.7 | 8 | 8
Cc1ccc(NC(=S)N(CCCN2CCN(C)CC2)Cc2cccs2)cc1 | 3 | 3315 | -65 | -16 | 7.5 | 13 | 8
Cc1ccc(C(=O)NNc2ncnc3ccccc23)cc1 | 5 | 4869 | -1 | -51 | 3.3 | -13 | -1

Looked up above.
Entry of COC(=O)c1ccc(C)c(NC(=O)C2CC(=O)N(C3CCCC(C)C3C)C2)c1 (configuration not stated) under RN4220 kill: -0.9
Entry of O=C(NCCCn1cccn1)C1CCC(=O)N(Cc2ccccc2F)C1 (configuration not stated) under BJeLR viability: -6

(continued)
SMILES | BJeLR viability | Bead autofluor | Sa ugtP lethal | PrP UTR inh | RN4220 kill | Mtb hypoxia inh | Mtb hypoxia inh growth
Cc1ccc(C)c(NC(=S)NNC(=O)c2ccc(Br)o2)c1 | -6 | 21935* | 0 | -16 | 3.2 | 10 | 11
FC(F)Sc1ccc(NC(=S)N2CCN(c3ccccn3)CC2)cc1 | -15 | 5222 | 4 | -15 | -0.8 | -8 | -2
COc1ccccc1N1CCN(/N=C\c2ccc(C)o2)CC1 | -6 | 3132 | x | -76 | x | x | x
COc1cccc(C(=O)NNC(=O)c2ccccc2-n2cccc2)c1 | -2 | 3251 | 3 | -20 | 1.2 | 3 | -5
Cc1c(C(=O)NN=Cc2ccc(N(C)C)cc2)[nH]c2ccc(Cl)cc12 | x | x | -2 | x | -3.8 | 10 | 3
CN(CC(=O)Nc1cccc(F)c1)C(=O)C1=COCCO1 | -3 | 5372 | 3 | -27 | 1.1 | 0 | 4
Cc1cccc(C(=O)NN=Cc2cc(Br)c(Br)o2)c1 | x | x | -18 | x | -1.2 | -4 | 0
COc1ccccc1NC(=O)CN(C)S(=O)(=O)c1ccc2c(c1)CCC(=O)N2 | -1 | 6075 | 8 | -9 | 6.0 | 13 | 4
O=C(Cn1c(=O)oc2ccccc21)Nc1ccccc1C(F)(F)F | -9 | 3833 | 3 | -7 | 3.6 | -3 | -2
C/C(CCc1ccccc1)=N/NC(=O)C(=O)NCc1ccccc1 | -3 | 2491 | x | -17 | x | x | x
CCCCOCCCNC(=O)CC(C)c1ccccc1 (configuration not stated) | -5 | 2570 | 7 | -16 | 5.5 | 8 | 8
CC(C)(C)S(=O)(=O)/C(C#N)=C/Nc1ccccn1 | -4 | 6770 | 1 | -27 | 3.1 | 6 | 3
CN(Cc1ccccc1)S(=O)(=O)c1ccc2c(c1)NC(=O)CC(=O)N2 | -9 | 2111 | 6 | -10 | 4.8 | 13 | 8
Cc1nn(Cc2ccc(F)cc2)c(C)c1NC(=O)c1cc(-c2ccc3c(c2)OCO3)on1 | -4 | 11194 | -13 | 3 | 2.7 | 3 | -1
Cc1ccc(S(=O)(=O)NC2=NCN(C3CCN(Cc4ccccc4)CC3)CN2)cc1 | -2 | 3240 | 4 | 3 | 8.5 | 5 | 1
NC(=O)c1cnn(-c2ccc3ccccc3c2)c1N | -1 | 4622 | -4 | -46 | 5.9 | 9 | 7

Exported with two lines to a compound: entries from further up.
Values in the order – BJeLR viability, Bead autofluor, Sa ugtP lethal, PrP UTR inh, RN4220 kill, Mtb hypoxia inh, Mtb hypoxia inh growth
COc1ccccc1NC(=O)CN(C)S(=O)(=O)c1ccc2c(c1)CCC(=O)N2
    -1, 6075, 8, -9, 6.0, 13, 4
O=C(Cn1c(=O)oc2ccccc21)Nc1ccccc1C(F)(F)F
    -9, 3833, 3, -7, 3.6, -3, -2
C/C(CCc1ccccc1)=N/NC(=O)C(=O)NCc1ccccc1
    -3, 2491, x, -17, x, x, x
